Screens as filed in PubChem.
LANA-H2B inh: blocks KSHV LANA binding to histone H2A/H2B. Q9QR71. cell-free LANA-H2A/H2B peptide, fluorescence polarization. inhibition, % (concentration not given with the values). 320,000 tested, 0.6% active. AID 2629; in the data active = inhibition mostly above about 10%, no sharp cut-off; inactive = mostly below about 6.7%;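 also: stock transfer was 7.5 nL into about 10 µL; 0% = median of vehicle wells and 100% = median of positive control wells; one replicate is shown; the record names a cut of 25% in any replicate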
Target sequence (Q9QR71 whole entry, looked up): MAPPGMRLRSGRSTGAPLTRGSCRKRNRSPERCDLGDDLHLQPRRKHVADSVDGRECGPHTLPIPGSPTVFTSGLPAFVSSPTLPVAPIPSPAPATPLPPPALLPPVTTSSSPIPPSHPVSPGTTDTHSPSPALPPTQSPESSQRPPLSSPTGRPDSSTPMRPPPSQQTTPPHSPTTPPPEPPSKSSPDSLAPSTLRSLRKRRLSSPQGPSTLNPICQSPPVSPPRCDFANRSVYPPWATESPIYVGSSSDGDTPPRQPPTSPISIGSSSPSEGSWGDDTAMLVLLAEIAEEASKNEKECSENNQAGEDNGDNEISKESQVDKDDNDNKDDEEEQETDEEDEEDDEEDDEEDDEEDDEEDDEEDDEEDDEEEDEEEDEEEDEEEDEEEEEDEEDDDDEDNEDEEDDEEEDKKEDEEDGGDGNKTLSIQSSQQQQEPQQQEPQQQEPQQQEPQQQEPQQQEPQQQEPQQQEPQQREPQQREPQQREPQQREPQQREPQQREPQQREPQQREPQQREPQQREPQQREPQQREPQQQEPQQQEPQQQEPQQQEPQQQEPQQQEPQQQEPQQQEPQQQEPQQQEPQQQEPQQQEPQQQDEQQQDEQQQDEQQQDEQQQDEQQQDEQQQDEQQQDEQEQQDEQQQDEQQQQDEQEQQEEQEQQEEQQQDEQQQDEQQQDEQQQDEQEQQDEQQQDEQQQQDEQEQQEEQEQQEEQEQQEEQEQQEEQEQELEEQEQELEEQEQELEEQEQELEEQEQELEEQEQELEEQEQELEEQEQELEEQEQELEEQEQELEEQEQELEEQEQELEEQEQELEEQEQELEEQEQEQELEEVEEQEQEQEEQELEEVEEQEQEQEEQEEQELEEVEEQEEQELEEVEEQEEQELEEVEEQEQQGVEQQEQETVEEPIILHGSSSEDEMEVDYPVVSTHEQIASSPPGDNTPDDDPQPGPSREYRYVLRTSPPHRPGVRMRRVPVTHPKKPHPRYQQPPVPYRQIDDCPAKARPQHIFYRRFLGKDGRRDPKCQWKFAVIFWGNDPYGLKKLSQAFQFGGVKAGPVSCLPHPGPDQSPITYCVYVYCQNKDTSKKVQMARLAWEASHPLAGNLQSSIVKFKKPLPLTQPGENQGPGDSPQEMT
Beta apoptosis: blocks beta cell apoptosis. INS-1E cytokine-induced death, ATP luminescence, 48 h; percent of positive-control rescue, neutral wells zero. protection from apoptosis, % (concentration not given with the values). 300,000 tested, 0.8% active. AID 435005;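 active = all replicates at 75% or more, or half of them and the mean; inconclusive = half reach 75% but not the mean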;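 also: 0% = cytokine-treated negative control wells and 100% = positive control rescue; higher means more ATP so stronger rescue from cytokine killing; wells of about 40 µL received 100 nL stock; the first replicate is given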
T cruzi inh: blocks replication of Trypanosoma cruzi; AID 1885; T. cruzi beta-gal in NIH3T3, luminescence, 90 h; 300,000 tested, 1.4% active; inhibition, % (concentration not given with the values);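 active = mean inhibition across valid replicates above about 55%, limit read from the data; inconclusive = mean below that limit but half or more replicates reach it; inactive = mean below it, under half of replicates reach it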;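 also: signal also drops with host cell toxicity which is not excluded here; 0% = plate median of DMSO wells and 100% = zero luminescence signal; higher percent means less beta-gal luminescence so fewer parasites; stock transfer was 50 nL into about 50 µL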
A1 inh: inhibitors of the anti-apoptotic protein A1, read as caspase activation | AID 2462 | 330,000 tested, 0.066% active | caspase activation, % (no concentration beside the values) | MEF A1-2A-BIM cells, Caspase-Glo 3/7 luminescence, 3 h; percent of clofoctol response, vehicle zero;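 active = over half of replicate activation scores above 10%, or exactly half above 10 with the replicate mean above 10; inconclusive = replicate mean below 10 yet half the replicates above 10; inactive = over half of replicates below 10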;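 also: wells of about 30 µL received 50 nL stock; many hits fall short of the cut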
rRNA inh HTS: selective bacterial rRNA inhibition in E. coli. 350,000 tested, 1.6% active. GFP signal change (wild-type ribosome), % (no concentration beside the values). AID 720706. E. coli WT GFP vs humanized-ribosome RFP mutants, fluorescence, 24 h; stronger effect = lower value; DMSO median 0, no signal -100;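 active = significant combined selectivity score with lowered wild-type GFP, culture density cut under 30%, mutant RFP and density less affected; inactive = any of these conditions unmet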; also: one replicate is shown; some compounds called inactive have numbers as strong as hits
ALR H2O2 inh: inhibitors of human sulfhydryl oxidase ALR; P55789; purified ALR, DTT oxidation, H2O2 HRP-luminol luminescence; inhibition, % (concentration not given with the values); 290,000 tested, 3.8% active;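 active = mean and each replicate at 75% or more; inconclusive = only one of the two met; inactive = neither met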;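 also: stock transfer was 7.5 nL into about 7.5 µL; 0% = neutral wells and 100% = wells with inactivated enzyme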
Calb FLC: affects C. albicans growth with fluconazole; C. albicans CaCi-2 (fluconazole-resistant clinical isolate) + fluconazole, Alamar Blue growth, 48 h; growth inhibition, % (no concentration beside the values); 300,000 tested, 0.57% active;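 active = most replicates above 75%; inconclusive = exactly half above 75%; inactive = most below 75%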;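 also: all wells also contain fluconazole at 8 µg/ml as a sub-toxic cotreatment; 0% = median of DMSO wells and 100% = median of geldanamycin control wells; wells of about 8 µL received 7.5 nL stock; the first replicate is given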
Beta2AR agonist: activates human beta-2 adrenergic receptor causing internalization | response, % (test concentration not listed) | 340,000 tested, 0.43% active | P07550 | Am2.2-beta2AR cells, FAP receptor internalization, flow cytometry; reference of the scale not given here;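 active = response above a set limit, near 3 SD of response in nonfluorescent compounds, cut at about 42% in these data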;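 also: stock transfer was 100 nL into about 11 µL; a reference agonist was the positive control; negative values mostly stem from fluorescent compounds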
rRNA inh HTS OD600: also measured in rRNA inh HTS; calls as there; OD600 change, %; measured here: OD600 growth;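 optical density of the mix in the first replicate; 0 = DMSO median and -100 = no signal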
rRNA inh HTS RFP: further read-out of rRNA inh HTS, marked with its call; RFP signal change, %; measured here: RFP humanized mutant strains;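 first replicate; 0 = DMSO median and -100 = no signal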
* hit, by the source's call; ? = inconclusive; nt = not tested or not shown. This is a subset. The share of hits here may be higher or lower than overall.

nr	smiles	LANA-H2B inh	Beta apoptosis	T cruzi inh	A1 inh	rRNA inh HTS	rRNA inh HTS OD600	rRNA inh HTS RFP	ALR H2O2 inh	Calb FLC	Beta2AR agonist
1	CCSc1nnc(NC(=O)NC(C)(C(F)(F)F)C(F)(F)F)s1	3.0	3	3	-0.8	nt	nt	nt	nt	?	6
2	CSc1cccc(NC(=O)CN(C)S(=O)(=O)c2ccc(F)cc2)c1	-3.2	2	-2	0.7	nt	nt	nt	-3	-3	5
3	Cc1ccccc1[C@@H](NC(=O)OC(C)(C)C)C(=O)OC(C)(C)C	0.4	3	nt	-0.5	0	0	-1.8	1	nt	0
4	O=C(CCN1C(=O)C2CC=CCC2C1=O)NC1CCCCC1 (stereo unspecified)	4.2	-4	5	0.5	3	17	0.0	-4	0	1
5	COc1cc(NC(=O)CN2C(=O)NC(C)(c3ccccc3)C2=O)c(C)cc1[N+](=O)[O-] (stereo unspecified)	0.1	3	0	1.4	nt	nt	nt	-8	-4	8
6	CNC(=S)Nc1cc(S(=O)(=O)Nc2cc(Cl)ccc2Cl)ccc1N1CCCC1	0.1	4	11	-0.6	-27*	-15*	6.0*	62	10	-7
7	CCOC(=O)COc1nc2ccc(Br)cc2c(-c2ccccc2)c1C(C)=O	-1.2	-4	24	-0.3	1	3	-1.8	-6	-1	5
8	CCOc1ccc(CCNC(=O)C2(c3ccccc3)CC2)cc1OCC	-0.5	-6	8	0.2	0	-11	1.0	-1	-14	-1
9	CC(CN1CCCC(C(N)=O)C1)c1ccccc1 (stereo unspecified)	0.4	-6	-7	-0.5	nt	nt	nt	0	-9	2
10	COc1ccccc1NS(=O)(=O)c1cc(NC(=O)c2sccc2C)ccc1N1CCCC1	-1.7	41	-14	-0.4	nt	nt	nt	-3	2	-25
11	COc1ccc(CN2CCN(C(=O)c3cccs3)CC2)cc1Br	1.0	6	14	-0.3	nt	nt	nt	0	17	-2
12	CCc1ccc(OC(=O)Nc2ccccc2)cc1	-2.8	3	-12	0.7	0	3	-5.3	7	0	-1

Values by screen from above:
Entries 5–12 in Calb FLC read -4, 10, -1, -14, -9, 2, 17, 0
Entries 5–12 in LANA-H2B inh read 0.1, 0.1, -1.2, -0.5, 0.4, -1.7, 1.0, -2.8

Additional results.
nr	smiles	LANA-H2B inh	Beta apoptosis	T cruzi inh	A1 inh	rRNA inh HTS	rRNA inh HTS OD600	rRNA inh HTS RFP	ALR H2O2 inh	Calb FLC	Beta2AR agonist
13	CCN(Cc1ccccc1)S(=O)(=O)c1ccc2c(c1)NC(=O)CC(=O)N2	2.3	-4	-2	0.9	5	1	0.7	nt	32	-14
14	CCOC(=O)N1CCN(C(=O)COc2ccc(S(=O)(=O)NC3CCCCC3)cc2C)CC1	0.8	4	-5	0.6	nt	nt	nt	-10	-8	-3
15	O=C(CCNS(=O)(=O)c1ccccc1F)N1CCN(C/C=C/c2ccccc2)CC1	5.7	7	6	0.4	-1	4	-0.3	-12	-5	-3
16	C[C@H](NC(=O)c1nc[nH]c1C(=O)N(C)Cc1ccccc1)c1ccccc1	1.6	-5	nt	0.1	-29	-27	-0.7	0	nt	-12
17	CC(=O)Nc1ccc(S(=O)(=O)NC2(C(F)(F)F)C(=O)Nc3c2c(=O)[nH]c(=O)n3Cc2ccccc2)cc1 (stereo unspecified)	-2.7	-5	-1	-0.2	nt	nt	nt	nt	-6	0
18	CC(NS(=O)(=O)c1ccccc1)C(=O)Nc1ccc2c(c1)OCCO2 (stereo unspecified)	-0.4	3	-6	0.1	5	8	-1.1	-7	0	1
19	C[C@]12c3[nH]c4ccccc4c3CCN1C(=O)C(CC(=O)NCC13CC4CC(CC(C4)C1)C3)C[C@@H]2C(=O)N1CCCCC1 (stereo partly specified)	nt	6	nt	-0.2	4	3	-1.5	0	nt	-7
20	O=C(NN=C(Cc1ccccc1)Cc1ccccc1)c1ccc(F)cc1	1.0	-1	12	-0.9	10	18	0.1	-22	-12	3
21	C=CCOc1c(CNc2ccc(C(=O)O)cc2)cccc1OCC	-2.4	-23	8	-1.7	nt	nt	nt	3	8	-1
22	Clc1cccc(-c2nc(NCc3cccnc3)c3ccccc3n2)c1	-6.8	3	28	-0.4	nt	nt	nt	-3	-10	-8
23	Cc1ccc(NC(=O)CN(C)C(=O)c2cc(S(=O)(=O)N(C)C)ccc2N2CCCC2)cc1	-2.9	-6	-3	-0.1	0	-2	-0.8	-2	0	3
24	COc1ccccc1NC1SC(=O)N(c2ccccc2)C1=O (stereo unspecified)	-8.9	3	-5	0.0	nt	nt	nt	-3	-8	-112

Compound profiles, as listed above:
C[C@H](NC(=O)c1nc[nH]c1C(=O)N(C)Cc1ccccc1)c1ccccc1 is entered as LANA-H2B inh: 1.6; Beta apoptosis: -5; T cruzi inh: nt; A1 inh: 0.1; rRNA inh HTS: -29; rRNA inh HTS OD600: -27; rRNA inh HTS RFP: -0.7; ALR H2O2 inh: 0; Calb FLC: nt; Beta2AR agonist: -12
Clc1cccc(-c2nc(NCc3cccnc3)c3ccccc3n2)c1 is entered as LANA-H2B inh: -6.8; Beta apoptosis: 3; T cruzi inh: 28; A1 inh: -0.4; rRNA inh HTS: nt; rRNA inh HTS OD600: nt; rRNA inh HTS RFP: nt; ALR H2O2 inh: -3; Calb FLC: -10; Beta2AR agonist: -8

New compounds follow.
nr	smiles	LANA-H2B inh	Beta apoptosis	T cruzi inh	A1 inh	rRNA inh HTS	rRNA inh HTS OD600	rRNA inh HTS RFP	ALR H2O2 inh	Calb FLC	Beta2AR agonist
25	COc1cccc(-n2cnnc2SCC(=O)NC2CC2)c1	-1.0	-4	nt	-0.1	7	12	-0.3	-2	nt	-10
26	COc1ccc(NC(=O)Nc2cccc(F)c2)c(OC)c1	-5.0	9	-6	-0.4	-5	-2	-3.4	-4	-7	9
27	Cc1ccccc1CCN1CCCC(CN(C)C(=O)c2ccc3ncccc3c2)C1 (stereo unspecified)	-1.0	0	39	0.6	-4	-12	-2.1	nt	22	-9
28	O=C(CSc1nc2ncccc2[nH]1)Nc1ccccc1-c1ccccc1	-8.7	1	-2	-0.2	-4	-20	-2.0	-10	4	2
29	COc1ccc(N(CC(=O)NCc2cccs2)S(=O)(=O)c2c(C)n[nH]c2C)cc1	3.4	3	-7	0.5	nt	nt	nt	-3	?	-10
30	CC(=O)N1CCN=C1SCc1ccc(F)cc1	-2.9	-2	-1	-0.2	1	2	0.6	99*	-5	-28
31	CCC1CCC2(CC1)NNC(=S)NN2	4.4	-5	-11	0.0	nt	nt	nt	-1	-8	-4
32	COc1ccc(-n2c(C)c(C)c3c(NCCN(C)C)ncnc32)cc1	3.2	-7	37	-2.5	8	11	-1.3	-14	-15	-10
33	CCN1C(=O)c2ccccc2Sc2ccc(C(=O)NCCCN3CCOCC3)cc21	2.3	-5	12	0.6	5	-11	1.2	-6	-3	-5
34	CCN1C(=O)[C@@H]2[C@@H](c3ccc(-c4ccc(Cl)c(Cl)c4)cc3)N3CCCC[C@@]3(C(=O)OC)[C@@H]2C1=O	-5.8	9	-11	0.3	13	6	0.3	1	-3	-3
35	Cc1cc(C)nc(SCc2nnc(SCC(=O)Nc3ccc(C)c(C)c3)o2)n1	-3.5	-8	-5	-0.2	nt	nt	nt	-5	4	0
36	COC(=O)c1sc2nc(CN3CCOCC3)nc(N3CCOCC3)c2c1C	3.0	-4	2	-0.3	5	1	-2.4	0	-1	2
37	COc1cccc(CN(C)C(=O)c2ccc(OCC(=O)N3CCOCC3)c(OC)c2)c1	-0.6	-3	nt	-0.4	7	8	-3.0	-4	nt	-5
38	Nc1cccc(-c2csc(-n3ncc(C(=O)O)c3C(F)(F)F)n2)c1	-2.1	0	6	1.2	4	-6	0.2	99*	28	-6
39	COc1ccccc1-c1cc(C(F)(F)F)c(C#N)c(=O)[nH]1	-3.6	nt	-2	-0.5	0	-11	-0.1	-24	45	-1
40	CC(O)CNc1ccc(-c2n[nH]c(=O)c3ccccc23)cc1[N+](=O)[O-] (stereo unspecified)	1.9	-5	3	0.0	2	-3	-2.5	8	-6	11
41	CCOC(=O)c1cccc(NC(=O)c2ccco2)c1	0.4	-1	5	-2.1	nt	nt	nt	0	4	-11
42	COc1ccc(CC(=O)NCC2COc3ccccc3O2)cc1 (stereo unspecified)	1.0	-2	5	0.2	6	-2	0.7	6	7	1
43	CCC1S/C(=N/N=C/c2ccco2)N(Cc2ccccc2)C1=O (stereo unspecified)	-1.5	nt	8	0.5	nt	nt	nt	nt	-20	-9
44	O=C(c1ccc(Cl)nc1)N1CCN(S(=O)(=O)c2ccc(Cl)cc2)CC1	-1.5	-3	-2	-0.8	-3	-1	0.0	1	28	1
45	COc1ccc(-c2nnc(SC)o2)c(OC)c1	7.1	-6	-11	?	3	5	-4.7	-5	-9	-2
46	CCOC(=O)CSC1=C(C#N)C(=O)NC(c2ccc(OC)c(OC)c2)S1 (stereo unspecified)	0.0	-8	4	0.2	nt	nt	nt	99*	-5	2
47	CC1CN(CCCOc2ccccc2[N+](=O)[O-])CC(C)O1 (stereo unspecified)	0.2	-1	2	0.3	nt	nt	nt	-27	-5	6
48	COc1cccc(OC)c1C(=O)OCCCOC(=O)c1c(OC)cccc1OC	6.6	-6	9	0.5	-9	-20	2.5	-9	19	-3
49	CCc1ccccc1N(CC(=O)N1CCCC1)S(C)(=O)=O	-0.3	1	-2	1.0	32	23	2.3	-14	6	2
50	COc1ccc(C2C(C(=O)NCc3cccnc3)c3cc(OC)c(OC)cc3C(=O)N2C)cc1 (stereo unspecified)	-2.3	-6	-6	0.1	nt	nt	nt	0	-6	-6
51	O=C(CCN1CCCC1)Nc1ccc(Br)cc1	0.0	-1	11	0.6	nt	nt	nt	-11	6	6
